Compound activity as filed in PubChem.
SARS PLpro yeast = qHTS of Yeast-based Assay for SARS-CoV PLP; S. cerevisiae expressing SARS-CoV PLpro, growth rescue; control for the full effect not named in the record; Potency, µM (titrated, usually from 32.9 µM), inactives show at the top dose activity, positive = growth rescue; 330,000 tested, 0.19% active; further: 0% is about no effect; nearly all actives have a fitted effect of over 55% in size; growth read by luminescence after 48 h
Cruzain noTriton = qHTS Assay for Promiscuous and Specific Inhibitors of Cruzain (without detergent). Cruzipain (Trypanosoma cruzi), P25779. purified cruzain, Z-FR-AMC fluorescence, no detergent. Potency, µM, inactives show max response, negative = inhibition, most hits filed as inhibitors. 200,000 tested, 2.3% active; active means well fitted curve in the direction sought with a large enough effect; inconclusive means small, poorly fitted or top-dose-only effect, or another doubt; inactive means no such curve, though single readings can be large; an effect the other way counts as inactive or inconclusive;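 further: plate controls were enzyme without inhibitor for no effect and buffer without enzyme for full effect; nearly all actives have a fitted effect of over 40% in size; top concentration of the series not given in the record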
Target sequence (P25779 123-467 limits assumed): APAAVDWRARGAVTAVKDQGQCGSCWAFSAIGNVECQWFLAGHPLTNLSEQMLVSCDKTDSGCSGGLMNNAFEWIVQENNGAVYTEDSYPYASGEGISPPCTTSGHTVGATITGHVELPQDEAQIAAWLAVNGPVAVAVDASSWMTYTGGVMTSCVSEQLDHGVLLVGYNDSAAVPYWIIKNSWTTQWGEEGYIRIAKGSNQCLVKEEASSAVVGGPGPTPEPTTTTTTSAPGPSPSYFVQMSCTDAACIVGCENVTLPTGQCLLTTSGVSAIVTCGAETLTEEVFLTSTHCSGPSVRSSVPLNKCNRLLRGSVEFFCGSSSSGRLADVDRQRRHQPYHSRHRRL
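Purified cruzain at 1.5 nM, pre-incubated 15 min with compound at room temperature in 100 mM sodium acetate pH 5.5, 5 mM DTT, 0.00005% Triton X-100. Reaction started with 2 uM Z-FR-AMC; AMC fluorescence increase over 60 s gives rate.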
Cruzain inh Det = qHTS Assay for Promiscuous and Specific Inhibitors of Cruzain (with detergent); purified cruzain, Z-FR-AMC fluorescence, 0.01% Triton; Cruzipain (Trypanosoma cruzi), P25779; Potency, µM, without a hit: max response, negative = inhibition, usual class: inhibitors; 200,000 tested, 0.43% active; active means well fitted curve in the direction sought with a large enough effect; inconclusive means small, poorly fitted or top-dose-only effect, or another doubt; inactive means no such curve, though single readings can be large; an effect the other way counts as inactive or inconclusive;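 further: plate controls were neutral wells for no effect and buffer without enzyme for full effect; nearly all actives have a fitted effect of over 40% in size; top concentration of the series not given in the record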
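Enzyme 1.5 nM, Z-FR-AMC 2 uM, NaOAc 100 mM pH 5.5, DTT 5 mM, Triton X-100 0.01%; 15 min RT compound preincubation; kinetic ex360/em450, 60 s delta.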
MARV entry inh = qHTS for inhibitors of binding or entry into cells for Marburg Virus. Potency, µM (series often up to 37.8 µM), for the others: at the highest dose activity change, negative = inhibition, actives largely listed as inhibitors. 300,000 tested, 1.8% active. Marburg virus pseudotyped entry inhibition, cell reporter; control for the full effect not named in the record; about a third of the inactives were read at about 46 µM. AID 540276, 2011; active = well fitted inhibition curve with a large enough effect; inconclusive = small, poorly fitted or top-dose-only effect, or effect the other way; inactive = flat fitted curve, though single readings scatter; tested in HEK293 cells; about a fifth of its hits are not listed in these tables; further: on the % scale 0 is the no-effect control and ±100 the full control effect; luciferase read-out
LASV entry inh = qHTS for Inhibitors of binding or entry into cells for Lassa Virus; Lassa virus pseudotype entry inhibition, cell reporter; control for the full effect not named in the record; Potency, µM (top dose mostly 37.9 µM), inactives show at the top dose activity change, negative = inhibition, hits mostly inhibitors; 300,000 tested, 1.2% active; active means well fitted inhibition curve with a large enough effect; inconclusive means small, poorly fitted or top-dose-only effect, or effect the other way; inactive means flat fitted curve, though single readings scatter; tested in HEK293 cells; further: on the % scale 0 is the no-effect control and ±100 the full control effect; nearly all actives have a fitted effect of over 50% in size; luciferase read-out
RE007 growth inh = qHTS Assay for Inhibitors of the HIV-1 protein Vpr; S. pombe RE007 Vpr strain, BacTiter-Glo ATP luminescence, 24 h; control for the full effect not named in the record; Potency, µM (doses to about 92.2 µM), without a hit: top-dose activity change, negative = less growth; 360,000 tested, 0.21% active; AID 651644, 2012; active = well fitted falling curve with a large enough effect; inconclusive = small, poorly fitted or top-dose-only effect; inactive = no such curve, though single readings can be large or run the other way;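 further: on the % scale 0 is the no-effect control and ±100 the full control effect; nearly all actives have a fitted effect of over 50% in size; the assay follows cell death caused by Vpr and the record does not say whether a fall means rescue or toxicity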
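Fission yeast strain RE007, carrying one chromosomally integrated HIV-1 vpr copy, was seeded at OD 0.01 in PMG+AL medium with 23 nL pinned compound. After 24 h at 30 °C and 99% humidity, viability was read by BacTiter-Glo luminescence.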
2A StopGo = High Throughput Screening for Foot and Mouth Disease Virus Antivirals. human cells with a luciferase reporter of 2A StopGo recoding; control for the full effect not named in the record. Potency, µM (highest dose often 57.9 µM), inactives show at the top dose signal change, negative = less light. 410,000 tested, 1.2% active; active = well fitted falling curve with a large enough effect; inconclusive = small, poorly fitted or top-dose-only effect; inactive = no such curve, though single readings can be large or run the other way; tested in HEK293T cells; further: on the % scale 0 is the no-effect control and ±100 the full control effect; nearly all actives have a fitted effect of over 45% in size; luciferase light after 4 h
NS1 function inh = qHTS Assay for Inhibitors of Influenza NS1 Protein Function; S. cerevisiae slowed by influenza A NS1, growth recovery by OD600; Potency, µM (top dose mostly 46.1 µM), for the others: at the highest dose activity, positive = more growth; 270,000 tested, 0.4% active; AID 2326, 2010; further: actives are rising curves; nearly all actives have a fitted effect of over 50% in size
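Compounds were scored for reversing the slow growth caused by influenza A NS1 in S. cerevisiae, measured by optical density at 600 nm. Assay medium contained 2% galactose at pH 6.0; NS1-free yeast of the same strain were the positive control.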
An asterisk follows results filed as active; ? = inconclusive; · = not tested or not shown; & = joins results of further samples; [ ] = remark or other dose. Unless noted, the call rests on the fitted dose curve; in most records, active means well fitted rising curve with a large enough effect; inconclusive means small, poorly fitted or top-dose-only effect; inactive means no such curve, though single readings can be large or run the other way. Potency means the concentration at half of the fitted maximal effect. Compounds were not picked by outcome. Share with any hit: about 4.8%.

molecule,RE007 growth inh,2A StopGo,Cruzain noTriton,LASV entry inh,MARV entry inh,SARS PLpro yeast,Cruzain inh Det,NS1 function inh
CN1CCN(c2nnc(-c3ccc(F)cc3)c3ccccc23)CC1,0.4%,-3.0%,·,6.2%[46.1 µM],4.3%[46.1 µM],10.8%,·,7.2%
COc1cccc(-c2cn3c(n2)sc2cc(C(=O)NCc4cccs4)ccc23)c1,·,4.6%,-0.4%,-0.2%[46.1 µM],·,·,-2.8%,·
N#CCN1CCN(CC(=O)c2ccc(Br)cc2)CC1,-4.5%,6.2%,·,19.6%[46.1 µM],-10.0%[46.1 µM],0.4%,·,-70.3%
CCCSc1nsc(NC(=O)CC)n1,-7.2%,-1.4%,·,?,12.6µM*,-0.4%,·,-1.4%
CCCCCn1c(=O)c(C(=O)NCc2ccc(Cl)cc2)c(O)c2ccccc21,-4.4%,-28.5%,·,·,·,0.4%,·,19.8%
CCC(C)NC(=O)c1c(C)oc2ncn(CC(C)C)c(=O)c12 (stereo not given),·,-21.5%,-9.5%,9.3%[46.1 µM],·,·,-1.3%,·
COc1cccc(-n2nc(C#N)c(Cl)cc2=O)c1,?,11.2µM*,·,?,?,-18.3%,·,2.5%
COc1ccccc1NC(=O)C(Cc1ccccc1)NS(=O)(=O)c1ccc2c(c1)c(=O)n(C)c(=O)n2C (stereo not given),·,-9.0%,-3.1%,?,-2.9%[46.1 µM],·,-0.8%,·

Remaining list, next part
molecule,RE007 growth inh,2A StopGo,Cruzain noTriton,LASV entry inh,MARV entry inh,SARS PLpro yeast,Cruzain inh Det,NS1 function inh
CNC(=O)c1ccccc1NC(=O)c1ccco1,-9.8%,-14.3%,-4.7%,3.0%,7.2%,5.2%,-0.9%,9.1%
Cc1ccc(-n2nnnc2SC(C)C(=O)Nc2ccccc2-c2ccccc2)cc1 (stereo not given),5.8%,-22.7%,-3.1%,-10.6%,-18.4%[46.1 µM],?,-0.2%,13.4%
COc1cc(OC)cc(C(=O)Nc2ccc(S(=O)(=O)Nc3ncccn3)cc2)c1,8.9%,-24.3%&32.7%,-10.9%,14.8%[46.1 µM],17.7%&17.7%[46.1 µM],-0.5%,-3.2%,·
CCCn1nc(C(=O)Nc2ccc(S(=O)(=O)Nc3nccs3)cc2)c2ccccc2c1=O,1.5%,10.7%,-1.3%,-14.5%,-7.6%,3.5%,-2.1%,-22.1%
CCOC(=O)CN1C(=O)CN(c2ccc(C)cc2)C1=O,-18.5%,36.3%[activator],-2.9%,29.0%,0.5%,4.1%,3.3%,-2.0%
O=C(CSc1nc2[nH]ncc2c(=O)[nH]1)c1ccccc1,2.8%,18.7%,·,4.8%,27.7%[46.1 µM],-0.3%,·,-1.0%
CCOC(=O)c1[nH]c2ccccc2c1NC(=O)NC(C)C,0.7%,-15.5%,·,-10.9%,1.7%[46.1 µM],0.5%,·,0.6%
CCOc1ccccc1NC(=O)CN1C(=O)COc2ccc(S(=O)(=O)N3CCCCCC3)cc21,·,4.0%,-7.2%,-5.2%[46.1 µM],·,·,-0.5%,·

Next results.
molecule,RE007 growth inh,2A StopGo,Cruzain noTriton,LASV entry inh,MARV entry inh,SARS PLpro yeast,Cruzain inh Det,NS1 function inh
CCOC(=O)C1CCN(S(=O)(=O)c2ccc(CC)cc2)CC1,25.2%,-15.6%,10.9%,-13.0%,-31.5%,-15.1%,3.8%,3.3%
O=S(=O)(c1ccc(Cl)cc1)N1c2ccccc2Oc2nc3ccccc3nc21,8.9%,19.1%,?,-11.4%,-9.2%,0.6%,-3.4%,8.7%
Cn1c(-c2c(N)n(C3CCCC3)c3nc4ccccc4nc23)nc2ccccc21,7.08µM*,-22.2%,?,-0.3%,?,-47.3%,-8.5%,-131.6%
CC(C)(C)N(Cc1ccccc1)C(=O)c1cccs1,-0.7%,-21.5%,·,0.1%,?,-4.2%,·,-4.8%
Cc1ccc(NC(=O)c2cccc(S(=O)(=O)N3CCN(C)CC3)c2)cc1F,2.1%,15.8%,·,-0.7%[46.1 µM],?,-0.1%,·,7.2%
O=C(c1ccco1)N1CCN(CCOc2ccc(F)cc2)CC1,-18.7%,-4.9%,·,·,2.8%,3.1%,·,2.0%
COc1cc(OC)c(OC)cc1/C=N/n1c(C)nnc1C,-5.1%,-6.0%,-11.7%,-1.1%,4.2%,0.0%,-4.0%,3.8%
O=C(NCC1CCCO1)c1cnn2c(C(F)F)cc(C3CC3)nc12 (stereo not given),12.0%,2.2%,·,10.3%[46.1 µM],-0.2%[46.1 µM],-0.1%,·,-3.4%

Remaining list, next part
molecule,RE007 growth inh,2A StopGo,Cruzain noTriton,LASV entry inh,MARV entry inh,SARS PLpro yeast,Cruzain inh Det,NS1 function inh
Cn1ccnc1SCC(=O)c1ccc(Cl)cc1,-12.8%,24.5%,·,-0.1%[46.1 µM],?,-11.1%,·,·
CC(=O)N1C(c2ccccc2O)C[C@]2(C)CC(=O)NC12 (stereo not given in full),-3.8%,-5.9%,·,1.7%,-14.3%[46.1 µM],3.2%,·,5.9%
Cc1nc2c(C)cccn2c1/C(O)=C1\C(=O)C(=O)N(CCN(C)C)C1c1ccco1 (stereo not given),3.2%,-6.9%,·,?,15.8%[46.1 µM],0.1%,·,-2.0%
O=C(CSc1nnnn1Cc1ccccc1)Nc1ccccc1,4.1%,0.5%,·,·,·,3.6%,·,-74.0%
Cn1c(/C=C(\C#N)C(N)=S)ccc1-c1ccc(Br)cc1,13.4%,-15.1%,·,·,·,0.3%,·,5.2%
COc1ccc(CNn2c(C)nc3ccccc3c2=O)cc1,-10.2%,·,12.7%,0.9%,?,8.8%,-8.7%,-48.7%
CSc1ccccc1OCc1cc(C(=O)N(Cc2nccn2C)C(C)C)no1,-18.3%,7.6%,·,-1.2%,-12.9%,1.1%,·,6.7%
CC(C)c1ccc(N(C(=O)c2csnn2)C(C(=O)NC2CCCC2)c2ccncc2)cc1 (stereo not given),-12.5%,30.7%[activator],·,-9.5%[46.1 µM],-1.7%[46.1 µM],0.8%,·,-21.6%

The final 2 entries of the section above come first, to join the parts:
molecule,RE007 growth inh,2A StopGo,Cruzain noTriton,LASV entry inh,MARV entry inh,SARS PLpro yeast,Cruzain inh Det,NS1 function inh
CSc1ccccc1OCc1cc(C(=O)N(Cc2nccn2C)C(C)C)no1,-18.3%,7.6%,·,-1.2%,-12.9%,1.1%,·,6.7%
CC(C)c1ccc(N(C(=O)c2csnn2)C(C(=O)NC2CCCC2)c2ccncc2)cc1 (stereo not given),-12.5%,30.7%[activator],·,-9.5%[46.1 µM],-1.7%[46.1 µM],0.8%,·,-21.6%
O=C(O)C1C2CCC(C2)C1C(=O)NCCc1ccc(F)cc1 (stereo not given),4.4%,-6.9%,·,16.3%[46.1 µM],1.0%[46.1 µM],0.4%,·,8.2%
COC(=O)/C(=C/c1ccc2c(c1)c1ccccc1n2C)NC(=O)c1ccccc1,-16.6%,-22.2%,?,?,?,11.1%,-9.8%,13.8%
CCOC(=O)CCCNC(=O)CCNC(=O)c1ccc(OC(C)C)cc1,12.4%,31.1%[activator],2.4%,0.2%,-0.7%,6.9%,4.5%,12.6%
Cc1cc(C(=O)N2CCCC(N3CCN(c4ccccc4C)CC3)C2)n(C)n1 (stereo not given),-8.5%,-26.3%,·,-9.5%[46.1 µM],?,7.5%,·,0.2%
CC(=O)NCC(c1cccs1)S(=O)(=O)c1ccc(F)cc1 (stereo not given),-1.3%,-3.9%,·,21.0%[46.1 µM],?,0.5%,·,-10.5%
CS(C)(=O)=NS(=O)(=O)c1ccc(Cl)cc1,2.4%,1.1%,-5.2%,4.8%,-2.7%,5.9%,0.2%,?
COc1ccc2cc(CN(Cc3ccco3)Cc3nnnn3C3CCCCC3)c(=O)[nH]c2c1,1.7%,-14.5%,?,?,?,-8.8%,-5.9%,3.6%
COc1ccc(N(C(=O)Cn2nnc(-c3ccc(F)cc3)n2)C(C)C(=O)NC2CCCC2)cc1OC (stereo not given),3.4%,-5.5%,·,5.8%,-0.2%[46.1 µM],2.8%,·,7.1%

Next part.
molecule,RE007 growth inh,2A StopGo,Cruzain noTriton,LASV entry inh,MARV entry inh,SARS PLpro yeast,Cruzain inh Det,NS1 function inh
Cc1ccc(C(=O)COC(=O)C2CC(=O)N(c3nc(-c4ccccc4)cs3)C2)cc1 (stereo not given),?,-6.3%,?,-22.1%,5.7%,-14.8%,3.0%,-3.5%
CCSc1cc(C2C(C#N)=C(N)Oc3n[nH]c(C)c32)c(C)o1 (stereo not given),-29.1%,?,-1.9%,10.0%,-14.9%,-15.3%,-5.4%,-32.3%
COc1ccc(-n2nc(N)c(C(N)=O)n2)cc1,-9.8%,37.8%[activator],·,21.3%,?,-1.9%,·,·
COc1ccccc1NC(=O)OCC#CCOC(=O)Nc1ccccc1OC,-1.9%,-0.2%,·,·,·,-1.4%,·,4.0%
O=C(Oc1ccc2ccccc2c1Br)N1CCCCCC1,-23.0%,0.0%,15.8%,3.26µM*,1.16µM*,-12.8%,-4.2%,-76.1%
COc1cc(-c2nc3ccccn3c2/N=C/c2cc(OC)c(OC)c(OC)c2)ccc1O,?,20.2%,·,2.8%,16.4%,·,·,·
O=C1c2oc3ccccc3c(=O)c2C(c2cccnc2)N1Cc1ccco1 (stereo not given),6.3%,-14.8%,-11.3%,5.4%,-10.3%,7.3%,0.8%,0.1%
COc1ccc(C)cc1NC(=O)CN1CCN(c2ccccc2F)CC1,10.4%,-14.2%,-6.1%,?,?,-8.8%,-5.8%,-41.9%
